Vaccinia Venus – vaccinia inhibition (Venus reporter). 330,000 tested, 0.46% active. AID 720580. Vaccinia virus Venus reporter expression, fluorescence. Potency, µM (doses to about 36.5 µM), for the others: at the highest dose activity change, negative = inhibition, hits mostly inhibitors; active means well fitted inhibition curve with a large enough effect; inconclusive means small, poorly fitted or top-dose-only effect; inactive means no such curve, though single readings can be large or run the other way; tested in A549 cells; note: nearly all actives have a fitted effect of over 30% in size; inactives centre near -10
Vaccinia mCherry – vaccinia inhibition (mCherry reporter); Vaccinia virus mCherry reporter infection, fluorescence; about a quarter of the inactives have no number; AID 720579; Potency, µM (doses to about 36.5 µM), for the others: at the highest dose activity change, negative = inhibition, usual class: inhibitors; 310,000 tested, 0.63% active; active = well fitted inhibition curve with a large enough effect; inconclusive = small, poorly fitted or top-dose-only effect; inactive = no such curve, though single readings can be large or run the other way; tested in A549 cells; note: nearly all actives have a fitted effect of over 35% in size; inactives centre near -10
Active calls of the source: *; i = inactive; ? = inconclusive; . = not tested or not shown; & = joins results of further samples; [ ] = dose if it differs, or a comment. % is set by controls: 0 for no effect and ±100 for the full control effect; potency is the fitted concentration of half-maximal effect.

| Structure | Vaccinia mCherry | Vaccinia Venus |
| --- | --- | --- |
| COc1cccc(C(c2sc3nc(-c4ccco4)nn3c2O)N2CCCC2)c1 (stereo not drawn) | -2% | -2% |
| O=C(N[C@@H](Cc1ccccc1)C(=O)OCc1ccccc1)c1nc[nH]c1C(=O)N1CCc2ccccc2C1 | -12% | 12% |
| CC(C)(C)C(=O)Nc1cccc(-c2ccc[nH]2)n1 | -3% | -10% |
| Cc1ccc(S(=O)(=O)N(CC(=O)Nc2ccc(Cl)cc2)C(=O)N2CCN(C)CC2)cc1 | -19% | -7% |
| COc1ccc(C(=O)NCCS(=O)(=O)N(C)Cc2ccccc2)cc1 | -27% | -13% |
| COc1ccccc1CN1CCN(Cc2nc(-c3ccccc3)no2)CC1 | ? | -12% |
| COc1ccc(S(=O)(=O)N2CCN(C)CC2)cc1NC(=O)c1ccccc1C | -11% | -13% |
| COc1ccccc1CN1CC(C(=O)NCc2ccc(SC)cc2)CCC1=O (stereo not drawn) | -22% | -16% |
| CC(C)n1cc2c(N)ncnc2n1 | -11% | -6% |
| CC(NC(=O)C1CCCN1C(=O)OC(C)(C)C)C(=O)OCc1ccccc1 (stereo not drawn) | 42%[activator] | 8% |
| CCn1c(=O)n(CC(=O)NC2CCCC(C)C2C)c(=O)c2ccccc21 (stereo not drawn) | . | -26% |
| N#Cc1ccccc1OCc1nnc(-c2ccccc2Br)o1 | 3% | 9% |
| COc1ccc(-c2ccc3c(c2)O[C@H](CN(C)C(=O)Nc2ccccc2F)[C@@H](C)CN([C@H](C)CO)S3(=O)=O)cc1 | -10% | -24% |
| O=C(COC(=O)c1cccc(NS(=O)(=O)c2ccc(F)c(F)c2)c1)NC(=O)NC1CCCCC1 | -17% | -25% |
| CCN(CC)c1ccc(/C=C2\NC(=O)NC2=O)cc1 | -24% | -15% |
| CCCCn1nc(NC(=O)c2cccc(Cl)c2)c2cc3ccc(C)cc3nc21 | -27% | -22% |
| CCOC(=O)C1(C)CCCN(C(=O)c2cc(F)cc(F)c2)C1 (stereo not drawn) | 41%[activator] | -3% |
| CN(CC(=O)Nc1ccccc1C(F)(F)F)C(=O)CSc1nnnn1C | -2% | -2% |
| Cc1cc(C(=O)NC(C)CCc2ccccc2)ccc1[N+](=O)[O-] (stereo not drawn) | i | -11% |
| CCOCc1c(C(=O)N2CCN(CCOc3ccc(Cl)cc3)CC2)oc2ccccc12 | -22% | -7% |
| O=C(CN1C(=O)NC2(CCCC2)C1=O)N1CCN(C(=O)c2ccco2)CC1 | 0% | 3% |
| O=C(O)c1ccc(NC(=O)N2C[C@H]3C[C@@H](C2)c2cccc(=O)n2C3)cc1 | -8% | -9% |
| CCOC(=O)C(C)NC(=O)c1cc2c(=O)[nH]c3ccc(C)cc3c2s1 (stereo not drawn) | 2% | 14% |
| O=C(c1ccc(CN2CCc3ccccc3C2)cc1)N1CCc2ccccc2C1 | . | -18% |
| COc1cccc(NC(=O)CCNS(=O)(=O)c2ccc(Br)s2)c1 | -26%&-18% | -15%&-14% |
| Cc1cc(NS(=O)(=O)c2ccc(NC(=O)c3c(F)c(F)c(F)c(F)c3F)cc2)nc(C)n1 | 28µM* | ? |
| COc1ccccc1N1CCN(CCN2C(=O)C3CCCN3C2=O)CC1 (stereo not drawn) | i | -10% |
| COCCN(C(=O)c1ccco1)c1nnc(-c2ccc(F)cc2)s1 | -8% | -20% |
| COc1ccccc1CCC(=O)N(CCC1=CCCCC1)c1c(N)n(Cc2ccccc2)c(=O)[nH]c1=O | -7% | -24% |
| CCCN1C(=O)c2oc3cc(C)cc(C)c3c(=O)c2C1c1ccc(F)cc1 (stereo not drawn) | 12% | 11% |
| Cc1nc2ccc(S(=O)(=O)NC(CC(C)C)C(=O)N3CCN(c4ccc(F)cc4)CC3)cc2s1 (stereo not drawn) | -12% | -9% |
| Cn1c(SCC(=O)NCc2ccco2)nnc1-c1ccc(NC(=O)c2ccccc2)cc1 | -21% | -16% |
| COc1ccc(CC(=O)OCc2nnc(-c3ccccc3)o2)cc1 | -1% | 4% |
| Cc1ccccc1NC(=NCCCN1CC1)Nc1ccccc1C | -27% | ? |
| COc1ccc(NC(=O)CN2C(=O)COc3ccc(C)cc32)c(OC)c1 | i | -5% |
| COc1ccc(C(=O)C(CCCCC(CN(C)C)C(=O)c2ccc(OC)cc2)CN(C)C)cc1 (stereo not drawn) | -15% | -26% |
| Clc1ccccc1-c1nnc(-c2cccs2)o1 | -5% | 2% |
| Cc1ccc2c(c1)N(CCC(=O)NCCCN1CCCC1)C(=O)CO2 | -30% | -11% |
| CCOc1cc(C)c(S(=O)(=O)NC2CC(C)(C)NC(C)(C)C2)cc1C | -7% | ? |
| O=C(Cn1cnc2c(NCc3ccccc3)ncnc21)NCC1CCCO1 (stereo not drawn) | i | -6% |
| O=C(NCc1ccco1)C(c1ccco1)N(CCc1ccccc1)C(=O)Cn1nnc2ccccc21 (stereo not drawn) | -17% | -16% |
| CC(=O)Nc1ccc(S(=O)(=O)NCc2ccc(C(=O)NC(C)c3ccccc3)cc2)cc1 (stereo not drawn) | i | -10% |
| CC1(C)Oc2ccc3ccc(=O)oc3c2/C(=C/Nc2cccc(O)c2)C1=O | -26% | ? |
| Cc1nn(-c2ccccc2)c(Cl)c1CN(C(=O)CCl)c1cccc2ccccc12 | -26% | ? |
| COc1ccc(Cl)cc1-c1n[nH]c(=S)o1 | -8% | 7% |
| COc1cc2nc(CCNCc3ccccc3)nc(NC3CCN(C)CC3)c2cc1OC | i | -16% |
| COC(=O)c1cc2sc(Cl)cc2n1Cc1nc(-c2ccc(OC)cc2)oc1C | -13% | -1% |
| O=C(O)CCC(=O)NNC(=O)c1cccc(Br)c1 | -11% | -7% |
| Cc1cc(C)nc(NC(N)=NC(C)c2ccccc2)n1 (stereo not drawn) | ? | ? |
| CCOc1ccc(NC(=O)Cn2nnc(-c3ccccc3NC(=O)CC)n2)cc1 | -2% | -22% |
| COCCNC(=O)C(=O)N/N=C(\C)CC(=O)Nc1cccnc1 | -15% | -11% |
| COC(=O)c1sccc1Oc1ccc(Cl)cc1N1C(=O)CCC1=O | -8% | 0% |
| Cc1sc2nc(SCC(=O)N(C)c3ccccc3)n(C)c(=O)c2c1C | i | -12% |
| CCCCCN(CCCCC)c1ccc(/C=C/c2ccnc3ccccc23)cc1 | 50%[activator] | 37%[activator] |
| Cc1cc(C(=O)N2CCCC(CCC(=O)N3CCN(c4ccccn4)CC3)C2)c(C)o1 (stereo not drawn) | -12% | -1% |
| CCN(CC)CCCNC(CC(=O)Nc1cccc([N+](=O)[O-])c1)C(=O)O (stereo not drawn) | i | -11% |
| CCCCCn1nnnc1C1(C)CCC(=O)N1Cc1ccco1 (stereo not drawn) | -7% | -5% |
| CCCC(=O)N1CCC1(C)C(=O)NS(=O)(=O)c1cc(C)ccc1F (stereo not drawn) | 31%[activator] | 3% |
| O=C(NC(CO)C(O)c1ccc([N+](=O)[O-])cc1)C(Cl)Cl (stereo not drawn) | i | -7% |
| CCCCOC(=O)C1CCCC(C(=O)OCCCC)N1 (stereo not drawn) | . | -12% |

(more compounds)
| Structure | Vaccinia mCherry | Vaccinia Venus |
| --- | --- | --- |
| S=C(Cc1ccc(Cl)cc1)N1CCOCC1 | -9% | -21% |
| COc1ccc(CCN2C(=O)CCC2(C)c2nnnn2Cc2ccccc2)cc1OC (stereo not drawn) | 17% | -4% |
| COC(=O)c1c(NC(=O)Cc2coc3cc(C)ccc23)sc2c1CCCC2 | -8% | -10% |
| COc1ccc(C(CC(=O)Nc2ccc(C)c(C)c2)N2Cc3ccccc3C2=O)cc1OC (stereo not drawn) | -11% | -8% |
| CC1(Oc2ccc3ccccc3c2)CCN(Cc2ccc(OC(F)(F)F)cc2)C1 (stereo not drawn) | 1% | 6% |
| FC(F)(F)c1ccc(Cl)c(-n2c(-c3cc(C4CC4)[nH]n3)n[nH]c2=S)c1 | -7% | -17% |
| CCOc1ccc(Cc2nc(C)c(CC(=O)N3CCOCC3)c(=O)[nH]2)cc1 | . | -6% |
| N=C1c2ccccc2CN1c1ncccn1 | -13% | -13% |
| CCOc1ccc(/C=C2\SC(=S)NC2=O)cc1OC | i | -4% |
| O=C(c1cccs1)N1CCc2ccccc21 | i | -19% |
| CC(C(=O)NC(=O)NC1CCCCC1)N(C)CC(=O)Nc1ccc(F)c(F)c1F (stereo not drawn) | -14% | 3% |
| COC(=O)C1=C(c2ccccc2)C[C@@H]2CC[C@H]1N2C(=O)NCC1CC1 | i | -8% |
| O=C(CCNS(=O)(=O)c1ccccc1F)OCc1ccccc1Cl | -5% | 16% |
| O=C(NCCCCNCCCNC(=O)c1ccccc1)c1ccccc1 | 5% | -1% |
| O=C1NC(=Nc2ccc(O)cc2)S/C1=C\C=C\c1ccco1 | ? | -6% |
| CCc1ccccc1NC(=O)CN(Cc1ccccc1)S(=O)(=O)c1ccc(Br)cc1 | -18% | -7% |
| Cc1cccc(N2CCC3(CC2)C(=O)NC(=O)NC3=O)c1 | -20% | 3% |
| Cc1cccc(C(=O)N2CCN(Cc3nc4sc5c(c4c(=O)[nH]3)CCCC5)CC2)c1 | 2% | 16% |
| Cc1ccccc1NS(=O)(=O)c1cc(S(C)(=O)=O)ccc1C | -9% | -15% |
| COc1cccc2cc(C(=O)NCc3ccco3)c(=Nc3ccc(C(=O)O)cc3)oc12 | 7.9µM* | 10µM* |
| CCOc1c2ccc(C(=O)NCc3ccc4c(c3)OCO4)cc2nn1CCOC | i | -16% |
| COc1ccc(NC(=O)CSc2ccc3c(c2)OCCO3)cc1 | -6% | -7% |
| COc1ccc(CC(=O)OCC(=O)NCc2ccc(F)cc2)cc1 | i | 0% |
| CCn1cc(C(=O)O)c(=O)c2cc(F)c(N/N=C/c3ccccc3)cc21 | -22% | ? |

Pulled one by one from the entries so far (2):
| Structure | Vaccinia mCherry | Vaccinia Venus |
| --- | --- | --- |
| COc1ccc(CC(=O)OCC(=O)NCc2ccc(F)cc2)cc1 | i | 0% |
| Cc1ccccc1NS(=O)(=O)c1cc(S(C)(=O)=O)ccc1C | -9% | -15% |

The results go on:
| Structure | Vaccinia mCherry | Vaccinia Venus |
| --- | --- | --- |
| COc1cc(OC)c(/C=C/c2cc3c4ccccc4ccc3[n+](C)c2)c(OC)c1 | -23% | -16% |
| CC(=O)Nc1ccc(Sc2ccccc2C(=O)Nc2ccc(F)cc2)cn1 | -3% | -15% |
| Cc1nc2ccccc2c2oc(C(=O)NCC3CCCO3)cc12 (stereo not drawn) | -16% | -12% |
| CCc1cccc(CC)c1NC(=O)C1CCN(C(=O)c2ccco2)CC1 | -10% | -7% |
| CCNS(=O)(=O)c1ccc(NC(=O)CC(C)c2ccccc2)cc1 (stereo not drawn) | -5% | -18% |
| CCOC(=O)c1c(NC(=O)COC(=O)CC(NC(C)=O)c2ccccc2)sc(C(=O)NC)c1C (stereo not drawn) | -12% | -2% |
| CC(C)(C)n1nnnc1SCC(=O)Nc1nn(-c2ccccc2)nc1C(N)=O | -15% | -12% |
| Nc1cc(Cl)ccc1Oc1ccc2ccccc2c1 | -4% | -19% |
| CN(C)c1ccc(C(C(=O)NCC2CCCO2)N(C(=O)c2snc(C(N)=O)c2N)c2ccc3c(c2)OCO3)cc1 (stereo not drawn) | i | -5% |
| Cc1cc(C)c(NC(=O)CSc2nc(COc3ccccc3)nc3ccccc23)c(C)c1 | 11µM* | ? |
| CCCNC(=O)Nc1nc(C(N)c2ccc(OC)cc2)cs1 (stereo not drawn) | -15% | -8% |
| Cn1nc(CC(=O)NC2CCCCCCCCCCC2)c2ccccc2c1=O | -24% | ? |
| CCOc1ccc(C2c3c(oc4cc(C)c(C)cc4c3=O)C(=O)N2CCCN2CCOCC2)cc1 (stereo not drawn) | -12% | 0% |
| O=C(Nc1ccc(-c2csc(Nc3ccccc3)n2)cc1)c1cccc(C(F)(F)F)c1 | ? | ? |
| COC(=O)C1=C(c2c(C)noc2C)C[C@@H]2CC[C@H]1N2C(=O)N1CCOCC1 | -10% | -9% |
| CCc1ccc(N2C(=O)CC(N3CCN(Cc4ccc5c(c4)OCO5)CC3)C2=O)cc1 (stereo not drawn) | -1% | -12% |
| CCOC(=O)c1cnc2c(-c3ccccc3)cnn2c1C | -7% | -12% |
| CCCCN=C1NN=C(c2ccc(C)c(C)c2)CS1 | -12% | -8% |
| CC1(C)Cc2c(cnn2-c2ccccc2)C(=O)/C1=N\NC(=O)c1ccccc1O | . | -8% |
| COCCN(C(=O)CSc1nnc(-c2ccc(C)c(C)c2)o1)c1c(N)n(CC(C)C)c(=O)[nH]c1=O | ? | ? |
| O=C(NC(NC(=S)Nc1ccccc1C(=O)O)C(Cl)(Cl)Cl)c1ccco1 (stereo not drawn) | -9% | -4% |
| CCc1cccc2c(C#N)cn(CC(=O)N3CCOCC3)c12 | i | -13% |

Reprinted from above (6 entries):
| Structure | Vaccinia mCherry | Vaccinia Venus |
| --- | --- | --- |
| CCOC(=O)c1cnc2c(-c3ccccc3)cnn2c1C | -7% | -12% |
| CCCCN=C1NN=C(c2ccc(C)c(C)c2)CS1 | -12% | -8% |
| CC1(C)Cc2c(cnn2-c2ccccc2)C(=O)/C1=N\NC(=O)c1ccccc1O | . | -8% |
| COCCN(C(=O)CSc1nnc(-c2ccc(C)c(C)c2)o1)c1c(N)n(CC(C)C)c(=O)[nH]c1=O | ? | ? |
| O=C(NC(NC(=S)Nc1ccccc1C(=O)O)C(Cl)(Cl)Cl)c1ccco1 (stereo not drawn) | -9% | -4% |
| CCc1cccc2c(C#N)cn(CC(=O)N3CCOCC3)c12 | i | -13% |

Bioassay records as filed in PubChem.
